High-throughput results: PubChem, several laboratories
Beta2AR agonist = human beta-2 adrenergic receptor agonism by FAP; Am2.2-beta2AR cells, FAP receptor internalization, flow cytometry; reference of the scale not given here; response, % (no concentration beside the values); actives 0.43% (n = 340,000); AID 504454;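 active = response above a set limit, near 3 SD of response in nonfluorescent compounds, cut at about 42% in these data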;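 note: stock transfer was 100 nL into about 11 µL; a reference agonist was the positive control; negative values mostly stem from fluorescent compounds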
Target sequence (P07550 whole entry, looked up): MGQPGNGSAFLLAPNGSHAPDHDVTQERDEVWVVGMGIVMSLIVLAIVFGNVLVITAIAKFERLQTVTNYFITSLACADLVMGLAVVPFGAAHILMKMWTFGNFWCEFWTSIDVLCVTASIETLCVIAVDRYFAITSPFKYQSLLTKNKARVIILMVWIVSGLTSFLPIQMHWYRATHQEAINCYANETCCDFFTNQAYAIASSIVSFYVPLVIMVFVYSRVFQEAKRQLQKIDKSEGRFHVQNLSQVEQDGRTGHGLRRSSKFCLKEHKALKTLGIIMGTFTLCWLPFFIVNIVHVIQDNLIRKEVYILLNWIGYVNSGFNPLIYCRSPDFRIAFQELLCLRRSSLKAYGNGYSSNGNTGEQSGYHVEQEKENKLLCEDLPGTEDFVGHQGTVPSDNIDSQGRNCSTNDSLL
Bfl-1 A1 inh = inhibitors of the anti-apoptotic protein A1, read as caspase activation; MEF A1-2A-BIM cells, Caspase-Glo 3/7 luminescence, 3 h; percent of clofoctol response, vehicle zero; caspase activation, % (test concentration not listed); actives 0.066% (n = 330,000);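 active = over half of replicate activation scores above 10%, or exactly half above 10 with the replicate mean above 10; inconclusive = replicate mean below 10 yet half the replicates above 10; inactive = over half of replicates below 10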;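 note: wells of about 30 µL received 50 nL stock; many hits fall short of the cut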
HNF4A DNA FP = change in binding of human HNF4 alpha to DNA | P41235 | HNF4a-FITC DNA binding, fluorescence polarization, 1 h | activity change, % at 10 µM | actives 0.3% (n = 360,000) | AID 1224865; in the data active = activity change above about 30%, passing the limit was not always enough;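 note: controls were the assay level and a saturating level of protein; the project sought stronger binding though the title names inhibitors; some compounds called inactive have numbers as strong as hits; positive values seem to mean higher polarization but the record does not say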
E coli growth = blocks Escherichia coli growth; actives 0.21% (n = 330,000); OD600 absorbance (test concentration not listed); AID 1053175; OD600, 23 h; hits give low values;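 active = OD600 absorbance below the run mean of sample wells minus 3.6 SD, in any replicate, cut at about 0.56 in these data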;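 note: stock transfer was 300 nL into about 60 µL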
LANA-H2B inh = blocks KSHV LANA binding to histone H2A/H2B | Q9QR71 | actives 0.6% (n = 320,000) | cell-free LANA-H2A/H2B peptide, fluorescence polarization | inhibition, % (no concentration beside the values); in the data active = inhibition mostly above about 10%, no sharp cut-off; inactive = mostly below about 6.7%;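 note: stock transfer was 7.5 nL into about 10 µL; 0% = median of vehicle wells and 100% = median of positive control wells; one replicate is shown; the record names a cut of 25% in any replicate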
Vif A3G = HIV-1 Vif–A3G interaction blockers – biochemical, TR-FRET, GST-Vif 1-94, biotin-A3G peptide, dose response retest, primary screen (AID 1117319) | TR-FRET GST-Vif / biotin-A3G peptide binding; higher % means a stronger effect; test concentration not given here; strong numbers were not always called active | actives 0.57% (n = 260,000) | inhibition, %; hits with a dose series show IC50 in µM;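 active = above the screen mean plus three standard deviations and confirmed in dose response; inconclusive = results disagree or hit not tested in dose response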;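 note: Vif residues 1-94 fused to GST binding biotinylated APOBEC3G peptide 110-148; 0% = full assay without inhibitor and 100% = GST in place of GST-Vif; retest series ran down from 100 µM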
UCH37 inh = human UCH37 deubiquitinating enzyme inhibition | actives 0.33% (n = 330,000) | AID 588478 | Q9Y5K5 | purified proteasome/UCH37, Ub-AMC cleavage fluorescence | inhibition, % (concentration not given with the values);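 active = mean of two replicates above 20%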;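 note: 0% = compound-free wells with enzyme and 100% = wells lacking proteasome; stock transfer was 100 nL into about 20 µL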
Target sequence (Q9Y5K5 whole entry, looked up): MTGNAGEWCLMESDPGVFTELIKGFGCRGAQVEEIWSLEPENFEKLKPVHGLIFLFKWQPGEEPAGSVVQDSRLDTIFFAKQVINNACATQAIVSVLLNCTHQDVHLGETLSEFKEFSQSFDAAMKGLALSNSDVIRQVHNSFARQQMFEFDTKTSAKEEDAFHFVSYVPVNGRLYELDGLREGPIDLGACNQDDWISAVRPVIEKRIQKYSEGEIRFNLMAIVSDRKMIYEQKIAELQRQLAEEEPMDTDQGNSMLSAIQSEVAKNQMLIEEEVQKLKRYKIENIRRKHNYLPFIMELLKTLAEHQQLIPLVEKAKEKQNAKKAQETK
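Material: human UCH37 enzyme supplied as purified proteasome complex. Measure: % inhibition of Ub-AMC cleavage fluorescence. Medium: pH 7.4 Tris-HCl (50 mM) with ovalbumin, ATP-MgCl2, DTT. Times: 30 min preincubation with enzyme, 25 min cleavage at room temperature. Detection: AMC fluorescence intensity at 355/460 nm.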
* marks the source's active call; other numbers are inactive results; i = inactive; ? = inconclusive; . = not tested or not shown.

SMILES	Beta2AR agonist	Bfl-1 A1 inh	HNF4A DNA FP	E coli growth	LANA-H2B inh	Vif A3G	UCH37 inh
C/C(=C/C=N/Nc1nc(N2CCCCC2)nc(N2CCCCC2)n1)c1ccccc1	1	0.7	4.5	.	-2.4	0%	.
CCc1cc(=O)oc2c(C)c(OCC(=O)NCC3CCC(C(=O)O)CC3)ccc12 (stereo not drawn)	31	0.1	5.3	0.66	2.7	.	-21
O=C(NCCc1ccccc1)C1CCN(S(=O)(=O)c2ccc(Br)s2)CC1	8	-0.2	1.8	0.69	3.1	?	0.6
CC(=O)C1C(=O)c2c(cccc2[N+](=O)[O-])C1=Nc1ccccc1C (stereo not drawn)	.	0.0	.	0.65	1.6	10%	2.3
CCOC(=O)c1c(C)[nH]c(C(=O)OCC(=O)Nc2sc(C(=O)N(C)C)c(C)c2C(=O)OCC)c1C	17	0.3	3.3	0.7	0.4	46%	4.2
COc1cc(S(=O)(=O)N2CCN(C(=O)c3ccco3)CC2)c(OC)cc1C	-3	?	0.7	0.7	-0.1	.	1.5
CCOc1ccc2[nH]c(C)c(CN3CCN(C)CC3)c(=O)c2c1	-6	-0.4	6.0	0.72	0.1	29%	-23
O=C1CCC(C(=O)OCc2cc(Cl)ccc2OC(F)F)N1 (stereo not drawn)	-3	1.3	2.3	0.73	1.4	?	3.7
COc1ccccc1NC(=O)c1ccc(NC(=O)CNC(=O)c2ccc(OC)c(OC)c2)cc1	-12	-0.3	-0.4	0.68	-0.9	.	-1.6
COc1ccccc1NC(=O)c1ccc2nc(C)sc2c1	9	-3.2	2.6	0.72	-5.1	.	4.3
CCOC(=O)Cc1csc(NC(=O)c2ccncc2)n1	-6	-1.0	-1.5	0.7	3.1	-4%	7.9
CCC(CC)C(=O)Nc1cccc(C(=O)NCCc2ccccc2)c1	-1	0.2	1.0	0.67	-4.1	7%	2.1
CSc1nnc(-c2ccc(S(=O)(=O)N3CCCCC3)cc2)o1	-5	0.1	0.4	0.65	-0.7	.	2.3
O=C1/C(=C/c2cccc(F)c2)SC(=S)N1NS(=O)(=O)c1ccccc1	10	-0.2	-3.7	0.65	-0.1	5%	14
Cc1cc(NC(=O)c2ccc(Cl)cc2)c(C(C)C)cc1O	-5	1.3	1.1	0.72	-6.9	3%	0.6
FC(F)(F)c1ccc2c(c1)C1C=CCC1C(c1ccncc1)N2 (stereo not drawn)	7	.	8.9	0.72	.	.	4.4
CCCCSc1[nH]c(=O)c(C(=O)OCC)cc1C#N	4	-0.5	4.6	0.68	3.5	?	-37
COc1ccc(N2CCN(C(=O)c3ccc(OCC4CCCO4)cc3)CC2)cc1 (stereo not drawn)	-6	-0.2	4.9	0.77	3.1	2%	2.5
O=C1CCCc2nc(N3CCCCC3)sc21	2	-1.6	2.2	0.69	-5.8	-1%	14
N#Cc1ccc(NC(=O)C2CC(c3ccc(F)cc3)=NO2)cc1 (stereo not drawn)	-2	-1.0	-2.2	0.71	-0.4	11%	5.9
O=C(Oc1ccc(Br)cc1)c1n[nH]c(=O)c2ccccc12	11	0.3	1.6	0.73	-2.1	-3%	0.4
CSCC[C@@H](C(=O)Nc1ccc2c(c1)OCCO2)N1Cc2ccccc2C1=O	11	0.6	4.0	0.7	-1.8	0%	-2.2
CCOC(=O)c1sc2nc(-c3ccccc3)ccc2c1N	9	-5.7	2.6	0.7	1.6	-4%	-34
CSC1=NC(NCCCO)c2c(sc3c2CC(C)(C)OC3)N1 (stereo not drawn)	1	-0.9	1.0	0.71	2.6	-4%	-110
COc1cc(OC)cc(C(=O)NC2CCN(Cc3nnnn3Cc3ccc(F)cc3)CC2)c1	-5	0.8	-3.8	0.67	0.8	.	3.3

(listing goes on)
SMILES	Beta2AR agonist	Bfl-1 A1 inh	HNF4A DNA FP	E coli growth	LANA-H2B inh	Vif A3G	UCH37 inh
Cn1cnnc1SCC(=O)N(Cc1ccc2c(c1)OCO2)C1(C(=O)NC2CCCCC2)CCCC1	-21	-0.4	-1.3	0.66	0.9	7%	2.7
COc1ccc(Cl)cc1NC(=O)COC(=O)c1cc(C)oc1C	3	1.0	0.0	0.72	-1.8	.	5.7
CCC1CCCCN1C(=O)COC(=O)c1cc(Br)ccc1Cl (stereo not drawn)	-3	-0.1	2.2	0.65	5.8	.	4.7
O=S(=O)(Nc1cc(F)ccc1F)c1cccc2nsnc12	0	0.6	1.0	0.7	-1.0	-2%	3.2
COC(=O)CNC(=O)CSc1nc2c(sc(=S)n2-c2ccccc2)c(=O)[nH]1	15	0.2	-1.0	0.69	3.1	0%	8.4
Cc1cccc(NC(=O)CNC(=O)CSc2ncccn2)c1C	1	1.0	-0.2	0.71	0.6	1%	-0.6
CCOc1cc(S(=O)(=O)NC2CCCCCC2)ccc1F	-8	-0.4	-1.6	0.69	22*	-6%	0.7
O=C1c2ccccc2N2C(=O)c3ccccc3[C@H]2N1c1ccccc1	-6	-0.5	-0.1	0.72	-1.2	-5%	0.6
Cc1ccc(OCC(=O)N/N=C/c2cc([N+](=O)[O-])ccc2N2CCCCC2)cc1	-1	-0.6	-0.6	.	-3.3	2%	.
COc1ccc(NS(=O)(=O)c2cccc(C(=O)NCC(c3ccc(F)cc3)N3CCOCC3)c2)cc1 (stereo not drawn)	0	-0.8	-1.7	0.71	-7.5	.	2.5
CC(C)(C)c1nnc(NC(=O)c2ccc(Cl)nc2)s1	1	1.2	-4.5	0.69	-5.4	65%	1.9
O=C(Nc1ccccc1)c1ncoc1-c1ccc(Cl)cc1	-4	0.5	-3.3	0.68	-0.6	.	2.7
CC1CCC(NC(=O)CCNS(=O)(=O)c2ccc3c(c2)CCC(=O)N3)CC1 (stereo not drawn)	-3	0.0	-3.8	0.69	-2.6	0%	1.1
CC1=NOC(=O)/C1=C\c1ccc(-c2cc(Cl)ccc2Cl)o1	80*	2.8	-1.1	.	-0.4	27%	.
O=C(Cn1ncc2c1-c1ccccc1OC2)N1CCc2ccccc21	6	0.9	-2.4	0.73	3.1	-3%	-6.9
O=C(NCc1ccc(F)cc1F)Nc1cnccc1C(F)(F)F	3	1.1	4.1	0.64	1.3	.	0.6
COc1cccc(OCC(=O)N2CCCc3ccccc32)c1	1	0.0	-1.9	0.67	-3.3	.	1.2
C#CCOCCOCCOCCNc1nc(N2CCN(C(=O)CCCCCCCCCCNC(=O)[C@@H](CCSC)n3cc(CCO)nn3)CC2)nc(N2CCN(C(=O)CCCCCCCCCCNC(=O)[C@H]([C@@H](C)CC)n3cc(CCCCN=C(N)N)nn3)CC2)n1	78*	1.5	212	.	-6.8	.	.
Cc1ccc(S(=O)(=O)Nc2cc(C(=O)NCCN3CCCC3)ccc2N2CCCCC2)cc1	17	-0.7	-1.5	0.71	5.9	19%	0.5
O=C(Cn1nc(Cc2ccncc2)c2ccccc2c1=O)N1CCc2ccccc2C1	-18	-0.2	0.5	0.7	-0.5	8%	20*
COc1ccc(/C=C/CN2CCC(n3nccc3NC(=O)C3CC3)CC2)cc1	-4	-1.9	0.6	0.68	1.8	.	2.1
O=C(NCc1ccccc1)N1CCNCC1	6	1.3	-1.4	0.64	-3.4	2%	2.3
COc1ccc(NC(=O)CSc2nc(NS(=O)(=O)c3ccccc3)cc(=O)[nH]2)cc1	6	0.1	-0.6	0.71	2.4	7%	3.0
CCN1CCN(c2ccc(S(=O)(=O)N3CCCCC3)cc2NC(=O)COc2cc(C)ccc2Cl)CC1	10	0.3	5.0	0.71	-6.6	5%	5.5
O=C(COc1coc(CN2CCc3ccccc3C2)cc1=O)Nc1cccc(Cl)c1	10	-0.3	-0.8	0.64	1.5	6%	2.7

As entered above:
Value for CSC1=NC(NCCCO)c2c(sc3c2CC(C)(C)OC3)N1 (stereo not drawn) in UCH37 inh: -110
Value for O=C1c2ccccc2N2C(=O)c3ccccc3[C@H]2N1c1ccccc1 in UCH37 inh: 0.6

Going on with the list.
SMILES	Beta2AR agonist	Bfl-1 A1 inh	HNF4A DNA FP	E coli growth	LANA-H2B inh	Vif A3G	UCH37 inh
Cc1ccc(SCC(=O)NCc2cccnc2)cc1	-3	0.4	0.7	0.63	1.6	29%	2.3
CCC1=NN2C(=N)/C(=C\c3cccn3-c3ccc(C)c(C)c3)C(=O)N=C2S1	-5	0.7	4.8	0.7	2.0	3%	-1.4
Cc1ccc(S(=O)(=O)N(C)CC(=O)N2CCN(Cc3ccc4c(c3)OCO4)CC2)cc1	1	0.1	-1.7	0.65	-12	.	-0.3
CC(C)(C)n1nc2c(c1NC(=O)c1ccc(Br)o1)CS(=O)C2 (stereo not drawn)	5	-0.3	2.8	0.74	-6.9	>100µM*	5.4
O=C1NC(=Nc2ccccc2Cl)S/C1=C\c1cc([N+](=O)[O-])ccc1O	-40	0.2	76*	.	-9.2	.	.
CC(C)c1c(C(=O)N/N=C/c2c[nH]c3ccccc23)nnn1-c1nonc1N	11	-0.6	-1.6	.	3.9	.	.
OC(CN1CCCCCC1)CN(c1ccccc1)c1ccccc1 (stereo not drawn)	-5	0.0	3.0	0.68	3.5	.	1.3
O=C(Nc1ccc(C(=O)N2CCOCC2)cc1)c1cnn2c(C(F)F)cc(-c3ccccc3)nc12	3	0.7	1.0	0.67	-5.6	0%	-0.1
COc1ccccc1N(CC(=O)NCCSc1ccc(Cl)cc1)S(C)(=O)=O	-1	-0.1	-0.2	0.71	-0.9	-10%	0.2
O=C(O)/C=C/C(=O)Nc1ccc(Cc2ccc(NC(=O)/C=C/C(=O)O)cc2)cc1	-2	-0.4	-7.1	0.68	-3.8	7%	4.6
NS(=O)(=O)c1ccc(-n2cccc2C=O)cc1	-3	-0.7	-2.3	0.65	-0.9	12%	-0.1
N#CC1(NC(=O)COC(=O)C23CC4CC(CC(O)(C4)C2)C3)CCCCC1	1	0.1	2.2	0.71	-1.4	-2%	2.7
Cc1cc2c(cc1C)-c1nnnn1C(C)(C)C2	-1	2.4	2.4	0.73	-0.8	-3%	0.9
O=C(CSCc1cccc(F)c1)N1CCN(c2ccccc2)CC1	-1	-0.2	5.5	0.74	6.3	0%	3.4
O=C(NC1CCCCC1)c1cc(-c2ccccc2Cl)on1	12	-2.1	-0.8	0.63	2.7	.	2.2
Cc1ccnc(SCC(=O)Nc2sc3c(c2C#N)CCC(C(C)(C)C)C3)n1 (stereo not drawn)	-7	0.1	-2.7	0.7	4.0	1%	1.8
CSc1nc(N)nc(SCCS(=O)(=O)c2ccc(Cl)cc2)c1C#N	-11	0.1	1.3	0.68	2.6	10%	1.4
CCCNc1nc2nc3ccccn3c(=O)c2cc1C(=O)NCCN1CCOCC1	-2	0.9	1.1	0.67	6.7	.	i
O=C(NCc1ccccc1)C(c1ccccc1F)N(CC1CCCO1)C(=O)c1ccccn1 (stereo not drawn)	-1	-0.5	2.6	0.69	-0.4	.	4.0
CCC(=O)Nc1ccc(-c2csc(NNC(C)=O)n2)cc1	6	0.5	2.3	0.69	0.5	.	2.6
CO/N=C(/CS(=O)(=O)c1ccc(C)cc1)c1ccc(OC)cc1	-2	0.7	0.8	.	-1.5	25%	.
COC(=O)c1c(NC(=O)CSc2nnc(CNc3ccc(Cl)cc3)o2)sc(C)c1C	8	-0.3	2.7	0.75	-3.8	70%	-2.5
COc1ccc(Cc2nnc(SCC(=O)N(c3ccccc3)C(C)C)n(N)c2=O)cc1	-4	0.8	0.8	0.69	1.7	.	2.7
Cc1ccc2nc(NC(=O)CN3C(=O)NC4(CCCCC4)C3=O)sc2c1	3	0.9	-1.7	0.63	8.3	-4%	-1.0
